# Source: PubChem BioAssay (several laboratories)
# PABP polyA inh: PABP poly(A) RNA binding inhibitors, primary screen, biochemical, fluorescence polarization, uHTS; inhibition, % at 35 µM; 290,000 compounds, 1% hits; Polyadenylate-binding protein 1 (Homo sapiens), P11940; AID 2014, 2009;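 active means 50% or more with normal probe brightness, or confirmed in later tests; inconclusive means above 50% with abnormal brightness, or retests that disagree; inactive means below 50% or failed in later tests; about a fifth of its hits are not listed in these tables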;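 further: calls also rest on retests at 20 µM and on dose response follow-up; controls were probe without protein and protein plus probe with vehicle; some compounds called inactive have numbers as strong as hits; many hits fall short of the cut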
# eIF4H inh: human eIF4H binding inhibitors, primary screen, translation initiation inhibitor project, biochemical, uHTS, fluorescence polarization; Eukaryotic translation initiation factor 4H (Homo sapiens), Q15056; eIF4H fluorescence polarization binding assay; inhibition, % at 35 µM; 290,000 compounds, 0.94% hits; AID 2012, 2009;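 active means 50% or more with normal probe brightness, or confirmed in later tests; inconclusive means above 50% with abnormal brightness, or retests that disagree; inactive means below 50% or failed in later tests; about a fifth of its hits are not listed in these tables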;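 further: calls also rest on retests at 20 µM and on dose response follow-up; 0% = protein and probe with vehicle and 100% = probe without protein; strong numbers were not always called active; many hits fall short of the cut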
# CSC inhib: cancer stem cell viability inhibitors, primary screen, luminescence; 300,000 compounds, 1.1% hits; cancer stem cell-like cells viability; inhibition, % at 7.5 µM;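 active means mean at 75% or more and at least half the replicates too; inconclusive means mean and replicates disagree; tested in HMLE shEcad cells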;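 further: 0% = median of negative and 100% = median of positive control wells; the first replicate is given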
# HIV Env fusion: inhibitors of HIV-1 Env-driven cell-cell fusion, primary screen, HeLa-JRFL effector, CEM21 target cells, luciferase; inhibition, % at 12.3 µM; 360,000 compounds, 1.1% hits; AID 651610, 2012;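 active means mean replicate inhibition score of at least 50 and every replicate individually at or above 50; inconclusive means only one of the two criteria met; inactive means mean below 50 and not all replicates reaching 50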;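 further: 0% = plate neutral controls and 100% = maraviroc near 300 nM; one replicate is shown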
# UUG fidelity: modulators of yeast start codon fidelity, primary screen, whole organism, S. cerevisiae, single point, plate reader; S. cerevisiae UUG-firefly luciferase reporter, luminescence/redox ratio; 350,000 compounds, 0.13% hits; activity score, % at 18.7 µM;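 active means replicate mean at a twofold rise or more, about +100% in these data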;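 further: firefly luciferase made from a UUG start codon reports start codon fidelity; reporter light over untreated wells divided by growth signal over untreated wells; some hits fall short of that in this replicate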
# MT1-MMP act inh: blockers of MT1-MMP proenzyme processing, primary screen, HT1080 RFP-PRO-GFP cells, GFP/RFP fluorescence. GFP/RFP ratio change, % at 20 µM. Matrix metalloproteinase-14 (Homo sapiens), P50281. 360,000 compounds, 0.061% hits. GFP/RFP ratio fluorescence, overnight; percent of plate control window, DMSO zero;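 active means GFP/RFP ratio change of at least 30% with cell ATP level not reduced by more than half and red fluorescence within 50% of control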; further: strong numbers were not always called active
#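 Assay system: HT1080 RFP-PRO-GFP cells. Benchmarks: DMSO vehicle wells and RFP-L50D-GFP reporter cell wells. Times: overnight cell settling, then overnight compound exposure, 37 °C, 5% CO2. Compound: 20 µM single dose, 1% DMSO. Read-out basis: GFP/RFP fluorescence ratio.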
# Rce1 inhib: yeast Rce1p protease inhibitors, primary screen, biochemical, fluorescence, cell-free homogeneous; CAAX prenyl protease 2 (Saccharomyces cerevisiae (strain ATCC 204508 / S288c)), Q03530; yeast membranes, quenched prenylated peptide cleavage fluorescence; calls only; 290,000 compounds, 0.27% hits; AID 2563, 2010;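 active means fall in fluorescence gain of 50% or more versus controls, with final raw signal at or below 3038400; inconclusive means same 50% fall but final raw signal above 3038400; inactive means fall in fluorescence gain under 50%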;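 further: plate controls were neutral control wells for no effect and wells lacking membranes for full effect; tested at 10 µM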
# Target sequence (Q03530 whole entry, looked up): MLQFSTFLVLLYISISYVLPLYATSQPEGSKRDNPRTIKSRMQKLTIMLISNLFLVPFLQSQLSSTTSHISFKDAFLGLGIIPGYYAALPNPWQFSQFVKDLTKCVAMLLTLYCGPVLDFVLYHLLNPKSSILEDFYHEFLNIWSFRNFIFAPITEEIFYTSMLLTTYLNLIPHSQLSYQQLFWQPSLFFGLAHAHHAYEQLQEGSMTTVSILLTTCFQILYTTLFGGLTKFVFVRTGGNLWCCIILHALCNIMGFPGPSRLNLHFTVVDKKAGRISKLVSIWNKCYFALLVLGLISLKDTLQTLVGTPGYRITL
# eIF4H inh retest: second read-out of eIF4H inh, no call of its own (marks repeat the call); inhibition, %; compound at 20 µM; confirmation average;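 mean of two retest wells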
# PABP polyA inh retest: also measured in PABP polyA inh; calls as there; inhibition, %; compound at 20 µM; confirmation repeats;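 mean of two retest wells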
# MT1-MMP act inh RFP: further read-out of MT1-MMP act inh, marked with its call; RFP signal change, %; measured here: RFP expression control read;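 0 = vehicle wells; hits needed this value within 50% of zero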
# Numbers without * were called inactive; i = inactive; ? = inconclusive; . = no result given.
SMILES,PABP polyA inh,eIF4H inh,CSC inhib,HIV Env fusion,UUG fidelity,MT1-MMP act inh,MT1-MMP act inh RFP,Rce1 inhib,others
COc1ccc(-c2cc(C(=O)N/N=C/c3cccnc3)c3cc(C)cc(C)c3n2)cc1,-1,15,59,4,-13,-1,-5,i,
CCOc1cc(S(=O)(=O)N2CCOCC2)ccc1F,-5,-5,8,.,-22,-3,-2,i,
CC(=O)Nc1ccc(C(=O)NCCCSc2ccccc2)cc1,3,5,-6,14,-14,0,0,i,
O=C1NCCNC1c1ccccc1 (configuration not stated),.,.,.,7,-17,0,0,.,
CC(C)NCC(O)COc1ccc(Br)cc1 (configuration not stated),8,-4,-4,-48,.,0,2,i,
COc1ccccc1N1C(=O)c2ccc(C(=O)Nc3nccs3)cc2C1=O,13,0,0,18,.,3,2,i,
CCNC(=O)C(=O)Nc1ccc([N+](=O)[O-])cc1,-4,-5,-3,-8,.,1,3,i,
O=C(CSC(=S)N1CCCCC1)c1ccccc1,-1,-7,-9,10,-59,-1,-4,i,
O=C(COC(=O)c1ccncc1)Nc1ccccc1,-2,8,-15,4,.,-4,2,i,
CCn1c(SCC(=O)N2c3ccccc3CCc3ccccc32)nc2c1c(=O)n(C)c(=O)n2C,.,.,12,45,-1,-8,0,i,

# Quoted at random: three compounds from above
SMILES,PABP polyA inh,eIF4H inh,CSC inhib,HIV Env fusion,UUG fidelity,MT1-MMP act inh,MT1-MMP act inh RFP,Rce1 inhib,others
CCNC(=O)C(=O)Nc1ccc([N+](=O)[O-])cc1,-4,-5,-3,-8,.,1,3,i,
CCOc1cc(S(=O)(=O)N2CCOCC2)ccc1F,-5,-5,8,.,-22,-3,-2,i,
O=C1NCCNC1c1ccccc1 (configuration not stated),.,.,.,7,-17,0,0,.,

# The list continues:
SMILES,PABP polyA inh,eIF4H inh,CSC inhib,HIV Env fusion,UUG fidelity,MT1-MMP act inh,MT1-MMP act inh RFP,Rce1 inhib,others
CCOC(=O)C1CCN(C/C=C/c2ccccc2)CC1,5,-4,-8,-6,-11,0,-2,i,
CCN(CC)CCCNC(=O)/C(=C\c1cccn1C)NC(=O)c1cccs1,-3,10,-1,-16,.,9,7,i,
CCC(C)Oc1ccc(/C=C/c2[nH]c(=O)[nH]c(=O)c2[N+](=O)[O-])cc1OC (configuration not stated),15,10,2,14,-5,-2,-8,i,
Cc1cc(C)n(CCNC(=O)c2cc(COc3ccc(F)cc3Cl)on2)n1,-5,-6,-24,-5,.,5,5,i,
Cn1cc(C(=O)NC2C3CC4CC(C3)CC2C4)cn1 (configuration not stated),-2,-8,-13,0,.,7,7,i,
CC(Oc1ccc(F)cc1)C(=O)Nc1cc(S(=O)(=O)N2CCOCC2)ccc1N1CCN(C)CC1 (configuration not stated),.,.,-4,-8,7,-3,1,i,
O=C(Nc1ccccc1N1CCN(C(=O)c2ccccc2)CC1)c1ccccc1Cl,1,1,1,7,.,-2,-2,i,
COc1ccc(/C=C/C(=O)OCC(=O)c2ccccc2F)cc1,.,.,-12,-69,.,4,2,.,
COc1ccc(OCC(=O)N2CCN(C(=O)c3cccc4ccccc34)CC2)cc1,0,-2,-11,2,0,-1,5,i,
COc1ccc(C(=O)NCc2ccccn2)cc1[N+](=O)[O-],5,4,-7,14,.,1,1,i,
Cc1onc(-c2c(F)cccc2Cl)c1C(=O)NCCN1CCNC1=O,-2,-6,-11,8,-15,4,1,i,
CCCn1c(SCC(=O)c2cc(C)n(-c3cc(C)on3)c2C)n[nH]c1=O,.,.,.,8,5,1,-17,.,
Cc1ccc(NC2CCCN(C(=O)c3snnc3C)C2)cc1C (configuration not stated),10,-4,9,-9,-17,1,0,i,
CCCOCCc1nnc(N)s1,-5,-5,-8,7,-11,-1,5,i,
COc1ccc(C(=O)N2CCN(C(=O)c3ccco3)CC2)cc1OC,5,0,-8,.,8,6,3,i,
Nc1c(C(=O)N/N=C/c2ccc(F)cc2)oc2nc(-c3ccccc3)cc(-c3ccco3)c12,?,?,-27,1,.,-17,6,i,
O=c1[nH]c(=S)c2c(n1-c1ccccc1)CCC2,4,14,-12,.,-20,6,0,i,
O=c1c2ccccc2nnn1CSc1nnc(-c2ccc3c(c2)OCO3)o1,4,4,1,.,-24,0,1,i,
O=C(NCCCn1ccnc1)c1ccc(NS(=O)(=O)c2ccc(Cl)c(Cl)c2)cc1,.,.,-5,.,-5,4,1,i,
Cc1cc(C)n2nc(-c3ccccc3)cc2n1,5,0,-2,-66,.,-5,-4,i,

# Structural class, those above with an NH in an aromatic ring.
SMILES,PABP polyA inh,eIF4H inh,CSC inhib,HIV Env fusion,UUG fidelity,MT1-MMP act inh,MT1-MMP act inh RFP,Rce1 inhib,others
CCC(C)Oc1ccc(/C=C/c2[nH]c(=O)[nH]c(=O)c2[N+](=O)[O-])cc1OC (configuration not stated),15,10,2,14,-5,-2,-8,i,
CCCn1c(SCC(=O)c2cc(C)n(-c3cc(C)on3)c2C)n[nH]c1=O,.,.,.,8,5,1,-17,.,
O=c1[nH]c(=S)c2c(n1-c1ccccc1)CCC2,4,14,-12,.,-20,6,0,i,

# Later entries.
SMILES,PABP polyA inh,eIF4H inh,CSC inhib,HIV Env fusion,UUG fidelity,MT1-MMP act inh,MT1-MMP act inh RFP,Rce1 inhib,others
O=C(O[C@H]1[C@H](Cc2ccccc2)NS(=O)(=O)[C@H]2C[C@@H]3C=C[C@]12O3)c1ccc([N+](=O)[O-])cc1,.,.,-3,0,14,3,-2,.,
CCn1cc(C(=O)NCCc2ccccc2C)c(=O)c2ccc(C)nc21,7,-5,4,-4,-9,-1,2,i,
O=C1CC(N(CCc2ccccc2)C(=S)Nc2cc(Cl)ccc2Cl)C(=O)N1c1c(Cl)cccc1Cl (configuration not stated),-2,-11,107*,.,2,-15,-29,i,
O=C(Nc1ccc(CN2CCCCC2)cc1)c1sc2ccccc2c1Cl,4,-3,47,10,-5,5,5,i,
O=C(c1cc([N+](=O)[O-])ccc1N1CCCC1)N1CCCCC1,-7,9,.,17,.,0,3,i,
O=C(CSc1nnc(-c2cccnc2)n1-c1ccccc1)Nc1ccccn1,4,1,9,16,-12,-2,3,.,
COCCn1c(SCC#N)nnc1-c1ccc2c(c1)OCO2,4,-8,5,-61,-10,3,1,i,
CCC(C)c1ccc(O)c(NC(=O)c2ncn[nH]2)c1 (configuration not stated),-2,-1,-2,.,-21,0,1,i,
COc1cccc(CNc2ccc3[nH]c(=O)[nH]c3c2)c1OCc1ccccc1,6,6,-8,.,-7,6,-3,i,
O=C(NCc1ccccc1)N1CCN(c2ccccc2)CC1,1,-8,-9,9,-14,1,-2,i,
O=C(O)CCNc1nc(C(F)(F)F)nc2ccccc12,49,1,-6,3,.,-5,0,i,
Cc1cc([N+](=O)[O-])nn1Cc1ccc(C(=O)N/N=C/c2ccc(O)cc2O)cc1,-4,8,117*,25,0,3,-5,i,
O=C(NCc1ccco1)C1CC(=O)N(c2ccc(O)cc2)C1 (configuration not stated),-1,-12,-11,.,-18,-2,0,i,
O=C1OCCN1/N=C/c1ccc([N+](=O)[O-])o1,0,-3,-2,14,-4,3,4,i,
COC(=O)[C@H](C)NC(=O)/C=C/c1ccc(OC)cc1,-22,-7,2,-16,-10,-2,3,i,
CCCN1CCN(S(=O)(=O)c2ccc3c(c2)CC(C)N3C(=O)C2CC2)CC1 (configuration not stated),.,.,7,14,-2,6,2,i,
Cc1cccc(C)c1OCC(O)Cn1nnc2ccccc21 (configuration not stated),1,-3,-6,.,-7,-1,-7,i,
O=C(OCc1ccccc1)N1CCC2CC1c1cc(-c3ccccc3)ccc12 (configuration not stated),.,.,.,16,-10,-3,-5,.,
Nc1cc2cccnc2cc1Cl,.,.,.,12,-20,-8,5,.,
Cc1cc(-n2cc(Br)c(=O)[nH]c2=O)nc(-c2ccccc2)n1,-8,-1,-4,-8,.,-3,-7,i,
C/C(CC(=O)Nc1ccccn1)=N\NC(=O)C(=O)Nc1cccc(Cl)c1C,6,2,-5,.,-17,2,3,i,
COc1ccc(CN(C)CC(=O)NC2CCCc3ccccc32)cc1OC (configuration not stated),5,0,0,13,.,1,-4,i,
Cn1c(=O)c2cc(S(=O)(=O)NCCC(=O)Nc3ccccc3F)ccc2n(C)c1=O,-8,-7,-8,22,3,-2,3,i,
CC(C)CSc1nsc(N)n1,-4,-9,11,.,-28,1,1,i,
CC1CCCCN1S(=O)(=O)c1ccc2c(c1)oc(=O)n2CC(=O)O (configuration not stated),1,69,-6,.,-12,-2,1,i,eIF4H inh retest=4;PABP polyA inh retest=12
COc1ccc(C(=S)NC2CCCCC2)cc1,-2,-4,1,.,.,-1,1,i,
